CtBP-E1A blk = inhibitors of CtBP/E1A interaction; AlphaScreen GST-E1A/His-CtBP binding, 1536-well; active compounds read low; control for the full effect not named in the record; activity change, % (no concentration beside the values); 340,000 compounds, 0.49% hits; AID 651724; in the data active means activity change below about -65%; inconclusive means about -30% to -65%; inactive means above about -30%; also: % is scaled to controls: 0 for no effect and ±100 for the full control effect
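Protein mix (5X: 125 nM each GST-E1A, His-CtBP) was incubated with pinned compound 2 h at 37 deg C in dark, in 50 mM Tris pH 8.0 buffer with 300 mM NaCl. Glutathione donor and nickel acceptor beads followed; AlphaScreen signal read after 1 h.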
Six1-Eya2 inh = Six1/Eya2 interaction inhibition; Q15475+O00167; AlphaScreen GST-Six1/His-Eya2 binding, biochemical; active compounds read low; control for the full effect not named in the record; activity change, % (no concentration beside the values); 360,000 compounds, 0.56% hits; in the data active = activity change below about -65%; inconclusive = about -30% to -65%; inactive = above about -30%; also: % is scaled to controls: 0 for no effect and ±100 for the full control effect
Target sequence (O00167 whole entry, looked up): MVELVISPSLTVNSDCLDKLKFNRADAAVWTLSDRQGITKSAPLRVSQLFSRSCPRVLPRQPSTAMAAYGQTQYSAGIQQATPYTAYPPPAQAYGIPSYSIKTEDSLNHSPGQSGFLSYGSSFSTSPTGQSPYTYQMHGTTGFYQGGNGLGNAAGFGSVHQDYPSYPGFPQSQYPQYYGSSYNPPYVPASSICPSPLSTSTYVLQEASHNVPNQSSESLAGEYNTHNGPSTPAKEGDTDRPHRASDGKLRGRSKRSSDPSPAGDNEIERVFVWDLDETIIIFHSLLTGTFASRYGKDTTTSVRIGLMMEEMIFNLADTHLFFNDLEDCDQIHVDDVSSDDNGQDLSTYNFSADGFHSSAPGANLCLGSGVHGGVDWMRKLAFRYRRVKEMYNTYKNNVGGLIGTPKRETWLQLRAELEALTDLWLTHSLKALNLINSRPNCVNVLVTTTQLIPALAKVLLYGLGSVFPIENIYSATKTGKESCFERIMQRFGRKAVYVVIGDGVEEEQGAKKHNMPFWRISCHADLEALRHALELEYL
Target sequence (Q15475 whole entry, looked up): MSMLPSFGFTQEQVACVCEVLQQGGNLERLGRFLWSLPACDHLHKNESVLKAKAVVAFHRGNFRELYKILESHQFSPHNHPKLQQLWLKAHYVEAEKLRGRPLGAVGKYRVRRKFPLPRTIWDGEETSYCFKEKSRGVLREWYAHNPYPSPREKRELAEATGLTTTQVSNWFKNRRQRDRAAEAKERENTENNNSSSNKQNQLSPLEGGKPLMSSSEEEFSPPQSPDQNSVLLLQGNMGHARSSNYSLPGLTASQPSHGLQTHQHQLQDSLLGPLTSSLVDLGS
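GST-Six1 + His-Eya2 (5X stock: 250/500 nM); Tris pH 8.0, 300 mM NaCl, 0.05% BSA, 0.02% Tween 20; GSH donor/Ni acceptor beads; 1 h 37 °C dark; AlphaScreen readout.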
D2 PAM = human D2 receptor positive allosteric modulation | potentiation, % (test concentration not listed) | AID 624464 | DiscoveRx D2 beta-arrestin cells, luminescence, 90 min; 100% = 57 uM dopamine signal | 360,000 compounds, 0.23% hits | P14416; active = potentiation of 50% or more; inconclusive = 30% to 50%; inactive = 30% or less;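 also: compound concentration not given in the record; tested on top of an EC20 dose of dopamine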
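D2 cells co-treated with compound plus 50 nM dopamine (EC20) for 90 min at 37 deg C to detect potentiation. Beta-arrestin recruitment was read as enzyme-fragment luminescence after 1 h at ambient temperature. Full response was set by 57 uM dopamine.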
gsp ag = agonists of gsp mutant (McCune-Albright syndrome) | gsp mutant cells, cAMP HTRF, 30 min; control for the full effect not named in the record | Potency, µM (series often up to 76.9 µM), for inactives: at the top dose activation (cAMP increase), most hits filed as activators | 340,000 compounds, 0.13% hits | AID 624287; active = well fitted activation curve with a large enough effect; inconclusive = small, poorly fitted or top-dose-only effect, or another doubt; inactive = no such curve, though single readings can be large or run the other way; cell line not stated here;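 also: phosphodiesterase inhibitor Ro 20-1724 added with compounds to block cAMP breakdown; potency is read from the fitted curve at half-maximal effect; nearly all actives have a fitted effect of over 60% in size; about a fifth of the inactives were tested at one dose only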
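Cells stably selected in G418 were plated at 2000/well, grown 16-24 hr, then given compounds in DMSO with the PDE inhibitor […] (300 uM solution added) for 30 min at 37C; cAMP was read by HTRF.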
gsp antagonist = gsp mutant antagonism | gsp-mutant cells, cAMP HTRF, 30 min; control for the full effect not named in the record | Potency, µM (doses to about 76.9 µM), inactives show at the top dose activity change, negative = inhibition, hits mostly inhibitors | 340,000 compounds, 0.4% hits | AID 624288; active = falling curve of any shape with a large fitted effect; inconclusive = falling curve, mostly with a smaller effect; inactive = flat or rising curve; cell line not stated here;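 also: intracellular cAMP measured with PDE inhibitor Ro 20-1724 present during compound exposure; potency is read from the fitted curve at half-maximal effect; % is scaled to controls: 0 for no effect and ±100 for the full control effect; nearly all actives have a fitted effect of over 65% in size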
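Measurement of cellular cAMP by homogeneous time-resolved fluorescence following a 30 min compound exposure at 37C. The PDE inhibitor […] was present throughout; the assay buffer was DPBS with 0.05% BSA and 0.005% Tween 20.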
D2 ag = agonists of human D2 dopamine receptor (beta-arrestin) | activation, % (concentration not given with the values) | 360,000 compounds, 0.084% hits | P14416 | DiscoveRx PathHunter D2 beta-arrestin, luminescence, 90 min; 100% = 57 uM dopamine signal; in the data active = activation above about 40%; inconclusive = about 15% to 40%; inactive = below about 15%; also: the text of the record calls up to 30% inactive
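Agonist mode: compounds alone added to overnight-plated D2 PathHunter cells for 90 min at 37 C, with 57 uM final dopamine (EC100) defining full response. Beta-arrestin recruitment detected by chemiluminescent reagent, read after 1 h at ambient temperature.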
* hit, by the source's call; ? = inconclusive; nt = no result given; [ ] = dose if it differs, or a comment.

SMILES	CtBP-E1A blk	Six1-Eya2 inh	D2 PAM	gsp ag	gsp antagonist	D2 ag
c1ccc(Cn2cc(CN3CCCCO3)c(-c3ccc4c(c3)OCO4)n2)cc1	-10	3	-15	-6%	2%	2.3
Clc1ccc(CSc2nnc([C@@H]3CCCN3)o2)cc1	-2	-3	-43	-4%	6%	-3.9
O=c1c(Cc2ccc(F)cc2)c(O)ccn1C1CC1	0	3	21	20%	6%	-1.5
NS(=O)(=O)c1cc(C(=O)OCC(=O)c2ccc3c(c2)OCCO3)ccc1Cl	nt	-4	-5	21%	-17%	0.8
N#Cc1c(Nc2cccc(F)c2)sc2c(O)cc(=O)[nH]c12	4	-4	4	-27%	-11%	3.7
CCN(CC)CCCN=C1N[C@@H](c2ccccc2)C(C(=O)OC)=C(C)N1CC	5	8	-6	nt	5%	-1.7
CCCN1Cc2cccc(C(=O)Nc3ccc(S(=O)(=O)N4CCCCCC4)cc3)c2C1=O	5	0	0	-42%[inhibitor]	-7%	-0.4
CC(=O)NC1=NN(C(C)=O)C2(CCCCC2)S1	0	-4	-4	16%	1%	1.0
CCN1CCN(S(=O)(=O)Cc2ccccc2Cl)CC1	-16	-2	-31	-47%[inhibitor]	9%	-3.6
CC1CN(c2cc(=O)n(-c3cccc(Br)c3)c(=O)[nH]2)CC(C)O1 (configuration not stated)	2	-1	-2	?	8%	-2.5
COCCNC(=O)c1cc(S(=O)(=O)N2CCOCC2)ccc1SCc1cccc(OC)c1OC	1	-2	-1	-18%[15.4 µM]	2%	-2.6
Cc1ccc(NC(=O)CSc2nc(NS(=O)(=O)c3ccc(C)cc3)cc(=O)[nH]2)cc1	4	-6	0	-10%	-5%	-1.2
O=C(Cn1cnc2ccccc21)OCC(=O)N1CCCCC1	2	-6	-21	-3%[15.4 µM]	7%	-1.6
Cn1nc(-c2ccc(C(=O)Nc3cccnc3)cc2)c2ccccc2c1=O	-1	-2	-8	-2%	19%	2.6
COc1cc(NC(=O)c2cccs2)c(C(=O)OCC(=O)c2cc(C)n(-c3ccc(F)cc3)c2C)cc1OC	14	3	-5	14%[15.4 µM]	-4%	-1.2
O=c1[nH]cnc2sc3c(c12)CCCCC3	-3	2	-6	-2%[15.4 µM]	0%	-2.9
Cc1ccc(S(=O)(=O)N(C)c2ccc(OCC(=O)Nc3nnc(C4CC4)s3)cc2)cc1	5	0	0	4%	-13%	-0.1
CC1CN(C(=O)c2cc3cc(F)ccc3[nH]2)CC(C)O1 (configuration not stated)	-2	4	4	-55%[inhibitor]	5%	-4.7
COc1ccc(CCNC(=O)Cn2c(=O)n(CCCC(=O)NCc3ccco3)c(=O)c3sccc32)cc1OC	nt	7	1	-26%	1%	-2.8
CC[C@]12C(=O)N(C)C[C@H]([C@@H]3C(=O)N(C)C(=O)[C@@H]31)N2C(=O)c1ccc(C(F)(F)F)cc1	9	14	1	nt	9%	-0.2
Cc1ccc(-c2nnn(CC(=O)N(CC3CCCO3)C(C(=O)NC3CCCC3)c3ccc(F)cc3)n2)o1 (configuration not stated)	9	6	-6	31%[15.4 µM]	-4%	-0.1
COc1ccc(NC(=O)C2C3C=CC4(O3)C2C(=O)N(CCN2CCCCC2C)C4C(=O)NC2CCCC(C)C2C)cc1 (configuration not stated)	0	6	-7	-29%	10%	3.3
COc1ccccc1C(CNC(=O)c1cccc(S(=O)(=O)Nc2ccc(F)cc2)c1)N(C)C (configuration not stated)	-3	-2	-5	21%	5%	-3.8
Cn1nc(C(C)(C)C)cc1C(=O)N1CCCC(c2cc(C(=O)NCc3ccccc3)no2)C1 (configuration not stated)	1	-3	-18	nt	nt	4.3

Structures above with a Cl atom:
SMILES	CtBP-E1A blk	Six1-Eya2 inh	D2 PAM	gsp ag	gsp antagonist	D2 ag
Clc1ccc(CSc2nnc([C@@H]3CCCN3)o2)cc1	-2	-3	-43	-4%	6%	-3.9
NS(=O)(=O)c1cc(C(=O)OCC(=O)c2ccc3c(c2)OCCO3)ccc1Cl	nt	-4	-5	21%	-17%	0.8
CCN1CCN(S(=O)(=O)Cc2ccccc2Cl)CC1	-16	-2	-31	-47%[inhibitor]	9%	-3.6

Next section.
SMILES	CtBP-E1A blk	Six1-Eya2 inh	D2 PAM	gsp ag	gsp antagonist	D2 ag
Cc1ccc(NC(=O)Cn2nc(C(=O)O)c3ccccc3c2=O)cc1S(=O)(=O)N1CCOCC1	nt	-22	2	12%	-18%	0.8
Cc1ccc2c(c1)N(C(=O)CCC(=O)NCCCN1CCC(Cc3ccccc3)CC1)CCO2	-1	6	-15	-17%	2%	-1.9
COc1cc2c3nnc(-c4ccccc4)c-3cn(Cc3ccccc3F)c2cc1OC	-17	-2	-15	29%[15.4 µM]	-13%	2.6
CN(CC(=O)Nc1cccc(F)c1)C(=O)CC1CCCC1	-17	8	-4	-8%	-19%	-4.0
Cn1c(=O)c2[nH]c(CNc3ccc(C(=O)O)cc3)nc2n(C)c1=O	nt	-9	-8	1%	7%	3.5
COc1ccc(NS(=O)(=O)c2ccc(NS(=O)(=O)c3ccc(SC)cc3)cc2)c(OC)c1	-6	-1	12	10%	-19%	3.3
CN(C(=O)COC(=O)C(C)(C)Oc1ccc(Cl)cc1)c1c(N)n(Cc2ccccc2)c(=O)[nH]c1=O	-23	8	12	6%	1%	2.4
COc1ccccc1NC(=O)/C(=C\c1cccnc1)NC(=O)c1ccc(C)cc1	-1	5	-9	?	-9%	-6.8
Cc1[nH]c(-c2ccc(F)cc2)cc1C(=O)N1CCN(c2cccc(Cl)c2)CC1	-17	-19	-9	?	-4%	-2.0
O=C(NCc1cccnc1)c1ccc2c(=O)n(CCCN3CCCC3=O)c(=S)[nH]c2c1	-13	-2	-19	19%	4%	1.6
Cc1ccc(C(=O)C(C)OC(=O)Cc2n[nH]c(=O)c3ccccc23)cc1 (configuration not stated)	6	-6	-2	-1%	9%	-1.6
O=C(COc1ccc(-n2cnnn2)cc1)NC(=O)NCc1ccccc1	11	-4	2	-17%	4%	-0.5
CC(C)c1ccc(-n2ccnc2SCC(=O)O)cc1	?	-4	-22	7%[15.4 µM]	-10%	-2.0
CC(=O)N1c2ccc(S(=O)(=O)NCC3CCC(C(=O)Nc4ccc(C)cn4)CC3)cc2CC1C (configuration not stated)	-7	-5	-10	1%	-14%	1.4
N#Cc1ccc(NC(=S)NC(=O)CCc2ccc(S(=O)(=O)N3CCOCC3)cc2)cc1	nt	4	-11	4%	-1%	-1.9
Cc1ccc(N(CC(=O)NC2CCCCC2)S(=O)(=O)c2c(C)nn(C)c2C)cc1	-1	3	-1	5%	5%	-2.9
FC(F)(F)c1ccccc1NC(=S)NN1CCOCC1	8	5	-12	28%	9%	-1.7
O=C1CC/C=C\C[C@@H](CC(=O)N(CCO)Cc2ccccc2)C(=O)N[C@H](Cc2c[nH]c3ccccc23)CO1	6	1	-4	-31%[inhibitor]	6%	-4.8
CCOc1cc(/C=N/Nc2nc(N3CCCCC3)nc(N3CCCCC3)n2)ccc1OC(=O)c1ccco1	nt	2	-7	11%	-6%	-2.7
O=C(NC(Sc1ccc(Cl)cc1)C(=O)O)c1ccccc1 (configuration not stated)	-2	7	-12	-42%	nt	-1.9
CCC(C)NC(=O)c1ccc(N2CC3CC(C2)c2cccc(=O)n2C3)c(NC(=O)c2c(F)cccc2F)c1 (configuration not stated)	-1	0	-3	-67%[inhibitor]	nt	0.1
Cc1ccc(SCC(=O)Nc2nnc(-c3ccco3)o2)cc1	-25	-20	-1	-2%[15.4 µM]	-16%	0.8
Cc1ccc(SCCNC(=O)/C=C/c2ccc(Cl)cc2)cc1	-5	9	-5	-7%	4%	-1.6
CCCCNC(=O)NS(=O)(=O)c1ccc(C(=O)OC)o1	4	-1	4	-17%	9%	-2.6
COc1ccc(OC)c(C(=O)NC(CC(N)=O)c2ccc(N3CCN(c4ccc(F)cc4)CC3)c([N+](=O)[O-])c2)c1 (configuration not stated)	0	-17	-12	?	-11%	-1.1
CC(C)(C)SCCNC(=O)CN(c1ccccc1)S(=O)(=O)c1ccc(F)cc1	2	-5	-1	-5%[15.4 µM]	8%	-2.8
CN(C)CCCNCC(=O)Nc1ccccc1N1CCOCC1	-1	0	-3	2%	-2%	0.0
COc1cccc(CC(=O)OCC(=O)NC(=O)c2ccc(OC(F)F)cc2)c1	-16	1	-5	5%	10%	-1.7
CN(CCc1ccccn1)S(=O)(=O)c1ccccc1F	7	?	4	24%	3%	-1.5
Cc1ccc(S(=O)(=O)N2CCC(C(=O)OCC(=O)NCc3ccco3)CC2)cc1C	-25	1	-1	-33%[15.4 µM]	3%	0.3
CC(Sc1nnc2c(n1)C1(C)CCC2C1(C)C)C(=O)Nc1ccccc1 (configuration not stated)	2	5	3	-28%	-2%	-0.1
NC(N)=NCc1cccc(I)c1	-2	6	-17	nt	2%	4.9
COc1ccc(C(=O)NC2CC(C)(C)Cc3c2cnn3-c2ccccc2)cc1OC (configuration not stated)	2	2	-4	9%	-18%	-4.0
COc1ccccc1NC(=O)C(=N\O)/C(C)=N/O	4	8	4	-11%	15%	1.3
C=CCn1c(O)c(/C=C2\C=NN=C2c2ccccc2)sc1=S	-21	-24	-5	-32%[inhibitor]	-12%	-0.1
O=C(COC(=O)CNC(=O)c1ccc(Cl)c([N+](=O)[O-])c1)NC(=O)CN1CCCC1=O	8	7	-22	5%	-1%	-3.5
COc1ccc(-c2oc(NC(C)=O)c(C#N)c2-c2ccc(OC)cc2)cc1	-9	-10	-18	19%	-17%	-5.3
Cc1c(NS(=O)(=O)c2cccc(C(=O)N3CCCC3)c2)c(=O)n(-c2ccccc2)n1C	5	-8	-21	15%[15.4 µM]	2%	2.2
O=[N+]([O-])c1cc2c(cc1/C=N/n1c(-c3ccccc3)n[nH]c1=S)OCO2	?	-3	23	26%	-8%	-0.1
COc1cccc(NC(=O)CSc2nnc(Cn3cnc([N+](=O)[O-])n3)n2C)c1	9	6	-3	-2%[15.4 µM]	12%	-2.8
COc1ccc(-c2ncc3ccccn23)cc1	6	-21	?	-4%	8%	-4.8
O=C(CNC(=O)c1ccco1)N=Nc1c(O)[nH]c2ccc([N+](=O)[O-])cc12	-11	-6	-17	-1%[15.4 µM]	-10%	-5.5
C[C@H](CO)N1C[C@H](C)[C@@H](CN(C)S(=O)(=O)c2ccc(F)cc2)Oc2ccc(NC(=O)c3ccncc3)cc2C1=O	-1	-4	-7	-6%	6%	1.2
Cc1cc2nc(N3CCN(C(=O)c4cccs4)CC3)sc2cc1C	6	4	-1	-8%[15.4 µM]	-4%	-1.8
CCc1ccc(NC2=NCC(c3ccccc3)S2)cc1 (configuration not stated)	2	2	-12	-15%[15.4 µM]	?	-1.5
C#CCn1c(=O)cc(C)c2ccccc21	0	-1	-12	5%[15.4 µM]	nt	1.2
CCCCn1c(SCC(=O)N2CCOCC2)nc2ccccc2c1=O	4	-5	3	?	-5%	8.8

Assay outcomes deposited in PubChem BioAssay by National Center for Advancing Translational Sciences (NCATS).
